MARV entry inh – blocks Marburg virus binding to or entry into cells. Marburg virus pseudotyped entry inhibition, cell reporter; control for the full effect not named in the record; about a third of the inactives were read at about 46 µM. Potency, µM (doses to about 37.8 µM), for inactives: at the top dose activity change, negative = inhibition, actives largely listed as inhibitors. 300,000 tested, 1.8% active. AID 540276; active = well fitted inhibition curve with a large enough effect; inconclusive = small, poorly fitted or top-dose-only effect, or effect the other way; inactive = flat fitted curve, though single readings scatter; tested in HEK293 cells; about a fifth of its hits are not listed in these tables; further: on the % scale 0 is the no-effect control and ±100 the full control effect; luciferase read-out
NS1 function inh – blocks influenza NS1 protein function | S. cerevisiae slowed by influenza A NS1, growth recovery by OD600 | Potency, µM (series often up to 46.1 µM), inactives show top-dose activity, positive = more growth | 270,000 tested, 0.4% active; active means well fitted rising curve with a large enough effect; inconclusive means small, poorly fitted or top-dose-only effect; inactive means no such curve, though single readings can be large or run the other way; further: nearly all actives have a fitted effect of over 50% in size
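In this qHTS, NS1 from influenza A is expressed in budding yeast, where it slows growth. Cells are switched from glucose to 2% galactose medium (pH 6.0, -URA), treated with compound, and growth recovery is read at OD600.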
SARS PLpro yeast – inhibitors of SARS-CoV papain-like protease in yeast; S. cerevisiae expressing SARS-CoV PLpro, growth rescue; control for the full effect not named in the record; Potency, µM (doses to about 32.9 µM), for inactives: at the top dose activity, positive = growth rescue; 330,000 tested, 0.19% active; AID 485353; active means well fitted rising curve with a large enough effect; inconclusive means small, poorly fitted or top-dose-only effect; inactive means no such curve, though single readings can be large or run the other way; further: 0% is about no effect; nearly all actives have a fitted effect of over 55% in size; growth read by luminescence after 48 h
Lassa entry inh – inhibitors of Lassa virus binding or cell entry. Lassa virus pseudotype entry inhibition, cell reporter; control for the full effect not named in the record. Potency, µM (top dose mostly 37.9 µM), without a hit: top-dose activity change, negative = inhibition, most hits filed as inhibitors. AID 540256. 300,000 tested, 1.2% active; active means well fitted inhibition curve with a large enough effect; inconclusive means small, poorly fitted or top-dose-only effect, or effect the other way; inactive means flat fitted curve, though single readings scatter; tested in HEK293 cells; further: on the % scale 0 is the no-effect control and ±100 the full control effect; nearly all actives have a fitted effect of over 50% in size; luciferase read-out
StopGo reporter – FMDV 2A StopGo reporter, luciferase signal; 410,000 tested, 1.2% active; human cells with a luciferase reporter of 2A StopGo recoding; control for the full effect not named in the record; Potency, µM (doses to about 57.9 µM), for inactives: top-dose signal change, negative = less light; AID 1159524; active = well fitted falling curve with a large enough effect; inconclusive = small, poorly fitted or top-dose-only effect; inactive = no such curve, though single readings can be large or run the other way; tested in HEK293T cells; further: on the % scale 0 is the no-effect control and ±100 the full control effect; nearly all actives have a fitted effect of over 45% in size; luciferase light after 4 h
Cruzain inh Det – cruzain (T. cruzi) inhibition with detergent; purified cruzain, Z-FR-AMC fluorescence, 0.01% Triton; AID 1478; P25779; 200,000 tested, 0.43% active; Potency, µM, without a hit: max response, negative = inhibition, usual class: inhibitors;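 further: plate controls were neutral wells for no effect and buffer without enzyme for full effect; nearly all actives have a fitted effect of over 40% in size; top concentration of the series not given in the record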
Target sequence (P25779 123-467 limits assumed): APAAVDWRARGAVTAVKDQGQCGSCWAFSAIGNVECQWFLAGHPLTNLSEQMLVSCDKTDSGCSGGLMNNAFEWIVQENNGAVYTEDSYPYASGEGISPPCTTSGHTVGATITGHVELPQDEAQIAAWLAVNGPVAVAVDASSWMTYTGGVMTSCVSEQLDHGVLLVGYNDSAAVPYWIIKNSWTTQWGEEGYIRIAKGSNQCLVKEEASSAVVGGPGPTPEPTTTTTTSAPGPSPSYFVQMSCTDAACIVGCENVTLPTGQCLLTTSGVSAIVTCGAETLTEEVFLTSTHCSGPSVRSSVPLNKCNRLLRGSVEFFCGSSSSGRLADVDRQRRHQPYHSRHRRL
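Steps: dispense cruzain (1.5 nM final) in acetate buffer pH 5.5 with DTT and 0.01% Triton X-100; pin-transfer compounds; incubate 15 min RT; add Z-FR-AMC (2 uM final); read fluorescence every 30 s, using the 60 s intensity change.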
RE007 growth inh – less growth of the S. pombe RE007 Vpr strain. S. pombe RE007 Vpr strain, BacTiter-Glo ATP luminescence, 24 h; control for the full effect not named in the record. Potency, µM (top dose mostly 92.2 µM), for the others: at the top dose activity change, negative = less growth. 360,000 tested, 0.21% active. AID 651644; active = well fitted falling curve with a large enough effect; inconclusive = small, poorly fitted or top-dose-only effect; inactive = no such curve, though single readings can be large or run the other way;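 further: on the % scale 0 is the no-effect control and ±100 the full control effect; nearly all actives have a fitted effect of over 50% in size; the assay follows cell death caused by Vpr and the record does not say whether a fall means rescue or toxicity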
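Fission yeast RE007 carrying one integrated HIV-1 vpr copy, seeded at OD 0.01 in PMG+AL medium with 23 nL pinned compound. Grown 24 h at 30 degrees; viability read by BacTiter-Glo luminescence after 5 min.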
Cruzain inh noDet – inhibitors of Trypanosoma cruzi cruzain without detergent | purified cruzain, Z-FR-AMC fluorescence, no detergent | Potency, µM, for the others: max response, negative = inhibition, most hits filed as inhibitors | 200,000 tested, 2.3% active;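 further: plate controls were enzyme without inhibitor for no effect and buffer without enzyme for full effect; nearly all actives have a fitted effect of over 40% in size; top concentration of the series not given in the record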
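Purified cruzain at 1.5 nM, pre-incubated 15 min with compound at room temperature in 100 mM sodium acetate pH 5.5, 5 mM DTT, 0.00005% Triton X-100. Reaction started with 2 uM Z-FR-AMC; AMC fluorescence increase over 60 s gives rate.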
An asterisk follows results filed as active; & = joins results of further samples; [ ] = dose if it differs, or a comment. Unless noted, the call rests on the fitted dose curve; in most records, active means well fitted curve in the direction sought with a large enough effect; inconclusive means small, poorly fitted or top-dose-only effect, or another doubt; inactive means no such curve, though single readings can be large; an effect the other way counts as inactive or inconclusive. Potency means the concentration at half of the fitted maximal effect.

Results for COc1ccc(NC(=O)Cn2c(=O)n(-c3ccccc3)c(=O)c3oc4ccccc4c32)c(OC)c1 ?
MARV entry inh: 31.8%; NS1 function inh: 0.6%; SARS PLpro yeast: 5.5%; Lassa entry inh: inconclusive; StopGo reporter: -29.6%; Cruzain inh Det: 0.2%; RE007 growth inh: 5.9%; Cruzain inh noDet: -7.4%

What do the screens show for `CCOC(=O)Cc1csc(NS(=O)(=O)c2ccc(NC(C)=O)cc2)n1`?
NS1 function inh: 8.8%; SARS PLpro yeast: 0.2%; StopGo reporter: -7.4%; RE007 growth inh: 2.4%

How did O=C(NCCCN1CCCC1=O)Nc1ccccc1Cl do in these assays?
MARV entry inh: -4.9%[46.1 µM]; NS1 function inh: -5.2%; SARS PLpro yeast: -0.6%; Lassa entry inh: 2.3%[46.1 µM]; StopGo reporter: -7.4%; RE007 growth inh: -5.6%

What do the screens show for `COCCNC(=O)C(=O)NCC(c1cccnc1)N1CCN(c2ccccc2)CC1` (stereo unspecified)?
Lassa entry inh: -19.1%[46.1 µM]; StopGo reporter: -21.4%; Cruzain inh Det: -1.9%; Cruzain inh noDet: inconclusive

What do the screens show for `COc1ccc(CNC(=O)CCC(=O)Nc2nnc(C(F)(F)F)s2)cc1`?
MARV entry inh: 15.8%[46.1 µM]; NS1 function inh: 1.4%; SARS PLpro yeast: 0.5%; Lassa entry inh: 18.7%[46.1 µM]; StopGo reporter: 23.4%; RE007 growth inh: 2.7%

What do the screens show for `COc1cc(-c2noc(C)c2C#Cc2ccsc2)cc(OC)c1OC`?
NS1 function inh: 3.2%; SARS PLpro yeast: -6.0%; StopGo reporter: -1.9%; RE007 growth inh: -2.2%

What do the screens show for `Cc1cc(NC(=O)CSc2nc3ccsc3c(=O)n2Cc2ccccn2)n[nH]1`?
MARV entry inh: -11.1%; NS1 function inh: 14.9%; SARS PLpro yeast: -3.3%; Lassa entry inh: -15.4%; StopGo reporter: 39.9%[activator]; Cruzain inh Det: 1.1%; RE007 growth inh: 6.8%; Cruzain inh noDet: -2.1%

What do the screens show for `CCN1C(=O)c2cccc3c(S(=O)(=O)Nc4ccc(OC)cc4OC)ccc1c23`?
MARV entry inh: 4.5%; NS1 function inh: 5.2%; SARS PLpro yeast: 5.2%; Lassa entry inh: -3.5%; StopGo reporter: 12.8%; Cruzain inh Det: -3.7%; RE007 growth inh: 21.3%; Cruzain inh noDet: inconclusive

How did COc1ccc(CNC(=O)C(=O)NCC2OCCCN2S(=O)(=O)c2cccs2)cc1 (stereo unspecified) do in these assays?
MARV entry inh: -1.1%; NS1 function inh: -3.8%; SARS PLpro yeast: 4.8%; Lassa entry inh: -0.2%; StopGo reporter: -16.5%; RE007 growth inh: 4.0%

How did Cc1nc([N+](=O)[O-])cn1-c1nc2ccccn2c1[N+](=O)[O-] do in these assays?
NS1 function inh: -9.0%&4.2%; SARS PLpro yeast: 1.6%; StopGo reporter: -7.1%; Cruzain inh Det: 7.2%; RE007 growth inh: -10.8%; Cruzain inh noDet: -5.9%

How did CCN(CC)CCN(Cc1cc2ccc(C)c(C)c2[nH]c1=O)C(=S)NCc1ccco1 do in these assays?
MARV entry inh: inconclusive; NS1 function inh: 4.8%; SARS PLpro yeast: 0.0%; Lassa entry inh: 5.62µM*; StopGo reporter: 4.1%; RE007 growth inh: 3.4%

How did N#Cc1ccsc1NC(=O)CN1CCCCC1 do in these assays?
MARV entry inh: 14.5%; NS1 function inh: inconclusive; SARS PLpro yeast: 4.5%; Lassa entry inh: -11.5%; StopGo reporter: -6.2%; Cruzain inh Det: 1.5%; RE007 growth inh: 23.7%; Cruzain inh noDet: 3.7%

What do the screens show for `COc1ccc(CCNCC(=O)Nc2ccc(C)c(S(=O)(=O)N(C)C)c2)cc1`?
MARV entry inh: 1.0%[46.1 µM]; SARS PLpro yeast: -1.8%; Lassa entry inh: inconclusive; StopGo reporter: -16.4%; RE007 growth inh: -2.2%

What do the screens show for `N[C@@H](Cc1cc(I)c(Oc2cc(I)c(O)c(I)c2)c(I)c1)C(=O)O`?
MARV entry inh: inconclusive; Lassa entry inh: inconclusive; StopGo reporter: inconclusive; RE007 growth inh: -6.6%[18.4 µM]

How did O=C(COc1ccc(Cl)cc1Cl)Nc1ccc(C(=O)OC2CCCCC2)cc1 do in these assays?
Lassa entry inh: 4.5%[46.1 µM]; StopGo reporter: -9.3%; Cruzain inh Det: -3.1%; Cruzain inh noDet: -11.9%

How did Cc1ccc(C)c(SCC(=O)c2ccc[nH]2)c1 do in these assays?
NS1 function inh: -3.3%; SARS PLpro yeast: -4.7%; StopGo reporter: -22.4%; RE007 growth inh: 1.5%

What do the screens show for `CC(=O)Oc1cccc(N2C(=O)c3ccc(C(=O)O)cc3C2=O)c1`?
MARV entry inh: -0.1%; NS1 function inh: -8.1%; SARS PLpro yeast: -5.4%; Lassa entry inh: -0.7%; StopGo reporter: -22.2%; Cruzain inh Det: 0.8%; RE007 growth inh: -18.1%; Cruzain inh noDet: -2.1%

How did COc1ccc(N2CCN(C(=O)c3cn(C)c4ccc(S(=O)(=O)N(C)C5CCCCC5)cc4c3=O)CC2)cc1 do in these assays?
MARV entry inh: 7.0%[46.1 µM]; Lassa entry inh: 17.9%[46.1 µM]; StopGo reporter: 15.0%; Cruzain inh Det: -0.6%; Cruzain inh noDet: -6.7%

Results for Cc1cc(C)cc(Oc2ccc(N)cc2)c1 ?
MARV entry inh: -13.4%; NS1 function inh: 12.6%; SARS PLpro yeast: 5.7%; Lassa entry inh: inconclusive; StopGo reporter: 8.1%; Cruzain inh Det: -5.3%; RE007 growth inh: 6.1%; Cruzain inh noDet: -3.2%

What do the screens show for `COc1ccc(-c2cc(C(=O)Oc3ccc(Cl)cc3)c3ccccc3n2)cc1`?
Lassa entry inh: -4.7%[46.1 µM]; StopGo reporter: -6.4%; Cruzain inh Det: -2.0%; Cruzain inh noDet: -22.9%

Results for CCOC(=O)C1CCN(S(=O)(=O)c2cc(Cl)c(C)cc2OC)CC1 ?
MARV entry inh: -2.6%; NS1 function inh: -74.1%; SARS PLpro yeast: -0.6%; Lassa entry inh: -13.9%; StopGo reporter: -17.4%; Cruzain inh Det: -6.7%; RE007 growth inh: -2.5%; Cruzain inh noDet: inconclusive

What do the screens show for `O=[N+]([O-])c1cccc(CN2CCN(c3cccc4[nH]ccc34)CC2)c1`?
NS1 function inh: -2.6%; SARS PLpro yeast: -0.1%; StopGo reporter: -20.2%; RE007 growth inh: 6.4%

What do the screens show for `CC1Sc2ccc(S(=O)(=O)CCC(=O)Nc3ccccn3)cc2NC1=O` (stereo unspecified)?
NS1 function inh: -1.0%; SARS PLpro yeast: 4.7%; StopGo reporter: 9.6%; RE007 growth inh: 2.3%

What do the screens show for `COc1ccccc1C(=O)NC1CC(C)(C)NC(C)(C)C1`?
MARV entry inh: -3.8%[46.1 µM]; NS1 function inh: 6.9%; SARS PLpro yeast: -0.7%; Lassa entry inh: 18.1%[46.1 µM]; StopGo reporter: 6.3%; RE007 growth inh: 2.0%

How did O=C(Nc1nccs1)C1CC(=O)N(CCc2ccc(F)cc2)C1 (stereo unspecified) do in these assays?
MARV entry inh: -12.3%[46.1 µM]; NS1 function inh: 1.8%; SARS PLpro yeast: -0.4%; Lassa entry inh: 25.9%[46.1 µM]; StopGo reporter: -13.9%; RE007 growth inh: 21.0%

How did Cc1ccc2c(c1)C(c1ccc(F)cc1)N(C(=O)c1ccccc1Br)CC(=O)N2 (stereo unspecified) do in these assays?
MARV entry inh: inconclusive; NS1 function inh: 2.0%; SARS PLpro yeast: 1.3%; Lassa entry inh: inconclusive; StopGo reporter: 3.3%; RE007 growth inh: 0.3%

How did CCOC(=O)N1CCN(C(=O)CNC(=O)c2nn(-c3ccc(OC)cc3)c(=O)c3ccccc23)CC1 do in these assays?
MARV entry inh: 9.0%; NS1 function inh: -4.7%; SARS PLpro yeast: 0.7%; Lassa entry inh: inconclusive; StopGo reporter: 23.5%; Cruzain inh Det: 0.4%; RE007 growth inh: 3.0%; Cruzain inh noDet: 12.4%

Results for CCCOc1ccc(C(C)=O)cc1CC(C(=O)OCC)C(=O)OCC ?
MARV entry inh: 0.4%; NS1 function inh: -46.7%; SARS PLpro yeast: -5.9%; Lassa entry inh: inconclusive; StopGo reporter: -23.0%; Cruzain inh Det: 4.9%; RE007 growth inh: -7.4%; Cruzain inh noDet: 18.6%

Results for COc1ccc(CCNC(=O)c2ccc3c(c2)c(C)c(C)n3Cc2ccc(F)cc2)c(OC)c1OC ?
Lassa entry inh: -5.2%[46.1 µM]; StopGo reporter: -10.5%; Cruzain inh Det: -1.3%; Cruzain inh noDet: -28.6%

How did Cc1ccc(-n2c3nc(=O)n(C)c(=O)c-3cc3ccccc32)cc1 do in these assays?
MARV entry inh: 21.1%[46.1 µM]; NS1 function inh: 0.0%; SARS PLpro yeast: -0.5%; Lassa entry inh: 8.9%[46.1 µM]; StopGo reporter: 0.0%; RE007 growth inh: -17.0%

What do the screens show for `Cc1cc(O)c(C(c2cccc(F)c2)N2CCN(c3ccccc3)CC2)c(=O)n1Cc1ccco1` (stereo unspecified)?
Lassa entry inh: 8.0%[46.1 µM]; StopGo reporter: 0.0%; Cruzain inh Det: 1.5%; Cruzain inh noDet: inconclusive

Results for Cc1cc(C)c(C#N)c(SCC(=O)Nc2cc(C)on2)n1 ?
MARV entry inh: 4.1%; SARS PLpro yeast: -7.1%; Lassa entry inh: -0.2%; StopGo reporter: 41.4%[activator]; RE007 growth inh: -18.3%

Results for COC(=O)CNC(=O)C1(C)C=CCN1C(=O)c1ccccc1 (stereo unspecified) ?
MARV entry inh: -3.4%; NS1 function inh: -5.6%; SARS PLpro yeast: -3.6%; Lassa entry inh: 20.7%; StopGo reporter: 13.8%; Cruzain inh Det: 1.8%&6.3%; RE007 growth inh: -6.5%; Cruzain inh noDet: inconclusive

What do the screens show for `N#CC(c1ccc(O)cc1)N1CCN(C(C#N)c2ccc(O)cc2)CC1` (stereo unspecified)?
MARV entry inh: -9.3%&-9.3%; Lassa entry inh: 4.5%; StopGo reporter: 2.5%; RE007 growth inh: -15.9%

Results for O=C(COC(=O)/C=C/c1ccc(S(=O)(=O)N2CCOCC2)cc1)NCc1ccc2c(c1)OCO2 ?
MARV entry inh: inconclusive; SARS PLpro yeast: -5.3%; Lassa entry inh: 0.7%; StopGo reporter: -13.4%; RE007 growth inh: 3.6%

Screens (PubChem BioAssay)
